KCNQ2 block: KCNQ2 potassium channel inhibitors, primary screen, cell-based, CHO-K1, FluxOR thallium flux, B-score (AID 2156); Potassium voltage-gated channel subfamily KQT member 2 (Rattus norvegicus), O88943; 20 min; hits give low values; only compounds with negative scores are shown here; some inactives read as strong as hits; B-score at 10 µM; 1.1% of 310,000 active;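 active = fluorescence ratio B-score at most minus 3 library SDs, with starting brightness B-score within 2 library SDs, cut at about -5.5 in these data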
Target sequence (O88943 whole entry, looked up): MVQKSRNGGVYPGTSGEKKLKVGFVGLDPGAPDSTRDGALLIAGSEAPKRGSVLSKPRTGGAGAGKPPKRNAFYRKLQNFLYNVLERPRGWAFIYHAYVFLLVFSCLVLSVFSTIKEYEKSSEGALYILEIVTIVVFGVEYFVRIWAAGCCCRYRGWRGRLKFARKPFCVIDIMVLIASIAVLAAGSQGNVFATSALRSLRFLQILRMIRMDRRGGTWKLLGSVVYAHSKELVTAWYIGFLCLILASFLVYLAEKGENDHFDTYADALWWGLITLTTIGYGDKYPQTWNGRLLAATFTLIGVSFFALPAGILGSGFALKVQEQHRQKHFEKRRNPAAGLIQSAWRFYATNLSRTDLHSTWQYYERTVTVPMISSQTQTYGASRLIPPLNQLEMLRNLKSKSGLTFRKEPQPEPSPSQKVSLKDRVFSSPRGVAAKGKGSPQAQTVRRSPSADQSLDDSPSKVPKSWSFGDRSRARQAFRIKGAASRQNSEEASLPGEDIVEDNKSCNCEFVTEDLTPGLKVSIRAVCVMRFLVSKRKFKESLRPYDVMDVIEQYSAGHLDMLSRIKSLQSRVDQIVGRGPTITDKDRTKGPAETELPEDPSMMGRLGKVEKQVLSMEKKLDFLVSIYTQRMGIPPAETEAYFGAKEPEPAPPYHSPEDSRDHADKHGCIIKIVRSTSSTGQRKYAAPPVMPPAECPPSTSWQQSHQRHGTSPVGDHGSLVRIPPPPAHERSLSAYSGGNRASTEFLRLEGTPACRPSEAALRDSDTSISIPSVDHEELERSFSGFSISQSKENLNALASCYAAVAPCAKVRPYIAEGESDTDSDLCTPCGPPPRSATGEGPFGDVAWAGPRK
KCNQ2 block baseline: recorded beside KCNQ2 block, whose call it bears; B-score; measured here: initial fluorescence intensity artifact check;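 brightness before thallium and not channel activity; 0 = typical well and far values either way flag optical interference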
The depositor's hits bear a star; i = inactive. Only part of the results is shown (hit frequency here may not be typical).

KCNQ2 block	KCNQ2 block baseline	SMILES
i	-0.9	COc1ccccc1CCNC(=O)CCn1nc(C)c2c(C)n(-c3ccccc3)nc2c1=O
i	1.56	CCOc1cc(/C=N\Nc2ncc(F)c(N3CCOCC3)n2)ccc1Oc1nc(Cl)ncc1F
i	1	O=C1c2cnc3nc(SCc4ccc(Cl)cc4)nn3c2CC2c3ccccc3CCN12 (stereo not drawn)
i	0.02	COc1ccc(C2C(C)C3(O)CC(C#N)(C(=O)N3)C2(C#N)C#N)cc1 (stereo not drawn)
i	0.02	CN(C)CCCN(C(=O)c1ccc(Cl)s1)c1nc2cc3c(cc2s1)OCO3
i	-0.68	NC(=O)Oc1cccc(OC(N)=O)c1
i	5.36	Cc1cc(Cl)c(OCCCn2ccnc2)c(Br)c1
i	-0.39	CCCCCCn1c(CN2CCCC(C)C2)nc2c1c(=O)n(C)c(=O)n2C (stereo not drawn)
i	-0.71	CCOC(=O)/C=C/c1ccc(C(F)(F)F)cc1S(=O)(=O)NC(C)(C)C
i	0.9	CN(CC(=O)NC1CC1)S(=O)(=O)c1ccc(F)cc1
i	-0.99	CCOc1ccccc1N1CCN(C(=O)CCCc2nc3ccccc3s2)CC1
i	-0.74	COCCNC(=O)C(c1ccccc1C)N(C(=O)Cn1nnc2ccccc21)c1cccnc1 (stereo not drawn)
i	-1.13	COc1cccc(NC(=O)N(Cc2cc3cc(C)cc(C)c3[nH]c2=O)CC2COCCO2)c1 (stereo not drawn)
i	-1.56	CC(C)c1nn2c(=O)cc(O)nc2s1
i	-0.68	CC(C)CN(C(=O)c1ccc(=O)n(C)n1)c1c(N)n(Cc2ccccc2)c(=O)[nH]c1=O
i	-1.69	CCN(CC)c1ccc(-c2nn3c(-c4n[nH]c5c4CCC5)nnc3s2)cc1
i	0.76	COc1cc(CC(=O)OCC(=O)N2CCCCC2)cc(OC)c1OC
i	-1.99	CC(C)c1ccccc1NC(=S)NC1CCCCC1
i	-0.23	O=C(c1cc(-c2cccs2)on1)N1CCN(c2ccccc2)CC1
i	-0.14	O=C(NC1CCSc2ccccc21)c1cccc(OC(F)F)c1 (stereo not drawn)
i	2.2	O=C(O)c1ccc(Oc2cc(Oc3ccc(C(=O)O)cc3)cc([N+](=O)[O-])c2)cc1
i	-2.55	CCC(CC)C(=O)NCc1ccc2c(c1)cc(C)n2C
i	0.77	O=C(Nc1ccccc1N1CCCCC1)c1ccc(Cl)cc1
i	-0.71	Cc1ccc(NC(=O)C2CC2C)cc1S(=O)(=O)N1CCOCC1 (stereo not drawn)
i	-1.65	COc1ccc(NC(=O)N2c3ccccc3C(C)=CC2(C)C)cc1
i	1.05	Cc1ccc(NC(=O)COC(=O)CCc2c[nH]c(=O)[nH]2)cc1
i	-0.1	CCS(=O)(=O)c1ccc2oc(SCC(=O)N3c4ccccc4CC3C)nc2c1 (stereo not drawn)
i	1.08	Cc1cccc(C)c1NC(=S)N1CCCN(C)CC1
i	-0.59	CC1(c2nnc(-c3ccccc3)o2)CC(c2ccccc2)=NO1 (stereo not drawn)
i	-0.19	CCOC(=O)CCSc1nc(C)c2cc(C)ccc2n1
i	2.85	O=C1CCC(=O)N1c1nc2n(n1)C(c1ccccc1)C=C(c1ccc(Br)cc1)N2 (stereo not drawn)
i	1.19	CCOC(=O)c1ccccc1NS(=O)(=O)c1ccccc1
i	-0.02	Cc1ccc(S(=O)(=O)N2CCCCC2)cc1C(=O)N(C)CC(=O)Nc1ccc(Cl)c(C(F)(F)F)c1
i	-0.42	Cc1ccccc1CN(CC1CCC(C(=O)O)CC1)C(=S)Nc1ccccc1F (stereo not drawn)
i	0.03	COCc1[nH]nc2c1C(c1c(F)cccc1Cl)C(C#N)=C(N)O2 (stereo not drawn)
i	-0.03	CS(=O)(=O)c1ccc(Cl)c(NC(=O)COC(=O)c2ccc(-n3cnnn3)cc2)c1
i	1.26	CCCCN1C(=O)/C(=C/C=C2\N(C)c3ccccc3C2(C)C)SC1=S
i	0.17	CCN(CC(=O)NC1CCCCC1)S(=O)(=O)c1ccc(Cl)cc1
i	0.23	CCOc1ccc(/C=C2/SC(=S)N(n3c(C)ccc3C)C2=O)cc1
i	1.65	N/C(Cc1cccc2ccccc12)=N\OC(=O)c1ccccc1F
i	0.92	CCOc1cccc(/C=C(/C#N)c2nc3ccccc3[nH]2)c1OCC(=O)O
i	0.14	O=C(c1ccc(F)cc1)N1CCN=C1c1ccccc1
-7.84*	0.93*	C=C(C)c1cccc(C(C)(C)NC(=O)Nc2nnc(C(C)C)s2)c1
i	0.54	Cc1ccc2occ(CN3CCN(Cc4ccccc4)CC3)c(=O)c2c1
i	0.74	CN(C)CCCNC(=O)c1ccc(Oc2ccccc2)cc1
i	0.59	CC(C)N(C)Cc1nnnn1CC(=O)NCc1cc(F)cc(C(F)(F)F)c1
i	0.59	COc1ccc(C(c2nnnn2Cc2cccs2)N2CCN(c3ccccc3F)CC2)cc1 (stereo not drawn)
i	1.63	Cc1nc2c(C(=O)NCc3ccccc3Cl)c[nH]n2c(=O)c1Cl
i	-0.51	CC(C)[C@H](NC(=O)[C@@H]1CSC2c3ccccc3C(=O)N21)C(=O)NCc1ccncc1 (stereo partly drawn)
i	-0.91	CCOc1ccc(NC2=C(Cl)C(=O)N(C3CCCCC3)C2=O)cc1
i	-0.58	O=C(C1CCCN(S(=O)(=O)c2ccc(Br)cc2)C1)N1CCN(Cc2ccccc2)CC1 (stereo not drawn)
-5.75*	-2*	Cc1cc(OC2CCCCC2)nc(-c2ccccc2O)n1
i	-0.13	O=C(CCN1CCN(CC(=O)Nc2ccccc2F)CC1)Nc1ccccc1F
i	0.12	CCOc1ccc(C(=O)OCC(=O)NCCCc2ccccc2)cc1
i	-2.16	COc1ccccc1N1CCN(C(=O)CCCNC(=O)Cn2cnc3sc(C)c(C)c3c2=O)CC1
i	0.13	COc1cccc(OC)c1C(=O)Nc1ccc2c(c1)n(C)c(=O)n2C
i	-1.18	Cc1ccc(OCCCSc2ncccn2)cc1C
i	0.32	Nc1nc2c(c3c1c(=O)oc1ccccc13)CCCCC2
i	-0.85	COC(=O)/C(=N/Nc1ccccc1C)Sc1nnc(C(O)c2ccccc2)n1-c1ccccc1 (stereo not drawn)
i	1.61	O=C(Nc1cccnc1Cl)c1cc(-c2ccc(Cl)cc2)on1

In another format: results already given
| structure | KCNQ2 block | KCNQ2 block baseline |
| --- | --- | --- |
| CC(C)N(C)Cc1nnnn1CC(=O)NCc1cc(F)cc(C(F)(F)F)c1 | i | 0.59 |
| COc1ccc(C(c2nnnn2Cc2cccs2)N2CCN(c3ccccc3F)CC2)cc1 (stereo not drawn) | i | 0.59 |
| Cc1nc2c(C(=O)NCc3ccccc3Cl)c[nH]n2c(=O)c1Cl | i | 1.63 |
| CC(C)[C@H](NC(=O)[C@@H]1CSC2c3ccccc3C(=O)N21)C(=O)NCc1ccncc1 (stereo partly drawn) | i | -0.51 |
| CCOc1ccc(NC2=C(Cl)C(=O)N(C3CCCCC3)C2=O)cc1 | i | -0.91 |
| O=C(C1CCCN(S(=O)(=O)c2ccc(Br)cc2)C1)N1CCN(Cc2ccccc2)CC1 (stereo not drawn) | i | -0.58 |
| Cc1cc(OC2CCCCC2)nc(-c2ccccc2O)n1 | -5.75* | -2* |
| O=C(CCN1CCN(CC(=O)Nc2ccccc2F)CC1)Nc1ccccc1F | i | -0.13 |
| CCOc1ccc(C(=O)OCC(=O)NCCCc2ccccc2)cc1 | i | 0.12 |
| COc1ccccc1N1CCN(C(=O)CCCNC(=O)Cn2cnc3sc(C)c(C)c3c2=O)CC1 | i | -2.16 |
| COc1cccc(OC)c1C(=O)Nc1ccc2c(c1)n(C)c(=O)n2C | i | 0.13 |
| Cc1ccc(OCCCSc2ncccn2)cc1C | i | -1.18 |
| Nc1nc2c(c3c1c(=O)oc1ccccc13)CCCCC2 | i | 0.32 |
| COC(=O)/C(=N/Nc1ccccc1C)Sc1nnc(C(O)c2ccccc2)n1-c1ccccc1 (stereo not drawn) | i | -0.85 |
| O=C(Nc1cccnc1Cl)c1cc(-c2ccc(Cl)cc2)on1 | i | 1.61 |

Next records:
KCNQ2 block	KCNQ2 block baseline	SMILES
i	0.21	Fc1ccc(NC(=S)N2CCSC2c2cccs2)cc1 (stereo not drawn)
i	0.14	CN(C)c1cccc(NC(=O)Cc2ccc(F)cc2)c1
i	0.03	Cc1cc(C)c2nc(-c3ccccn3)cc(C(=O)Nc3cc(C)on3)c2c1
i	2.12	CC/C(C)=N/Oc1nc(C)cc(C)n1
i	0.07	O=C(Nc1ccc(-c2cn3c(n2)SCC3)cc1)c1ccc2ccccc2n1
i	0.03	Cc1cccc(/C=C2\CCC(=C3SCCCS3)C2=O)c1
i	1.31	CC(=O)OCC1(C)CN(c2ccccc2)N(C(=O)c2ccc(C(C)(C)C)cc2)C1=O (stereo not drawn)
i	-0.23	COc1ccc(F)cc1S(=O)(=O)NCc1cc(=O)n(C)c(=O)n1C
i	-1.06	CC(=O)N1CN(CCCn2ccnc2)Cc2c1sc1c2CCCC1
i	2.03	O=C(NCc1cccs1)c1cc(C2CC2)on1
i	0.32	O=S(O)OC1CS(=O)(=O)CC1c1ccccc1 (stereo not drawn)
i	1.1	Cc1ccc(S(=O)(=O)NC(=O)Nc2ccc(F)c(F)c2)cc1
i	-0.69	CC(C)C[C@H](NC(=O)C1(c2ccccc2)CCN(C(=O)OC(C)(C)C)CC1)C(=O)N1CCC[C@H]1C(=O)O
i	-0.79	Cc1ccc(S(=O)(=O)CCC(=O)c2ccc(F)cc2)cc1
-6.15*	-2.2*	Cn1c(CC(=O)Nc2ccccc2)c(Sc2ccccc2)c2ccccc21
i	-1.49	CCOc1ccc(C(=O)C2CCN(CC(=O)Nc3nccs3)CC2)cc1
i	-0.05	CC1CCN(S(=O)(=O)c2ccc3c(c2)N(CC(=O)NCCCN2CCCCC2)C(=O)CS3)CC1
i	-0.27	CCN(CC)S(=O)(=O)c1ccc(O)c(NC(=O)c2ccc(N3CCOCC3)c([N+](=O)[O-])c2)c1
i	-0.01	CCOC(=O)/C(C#N)=C/c1cc2cc(C)c(C)cc2nc1Cl
i	1.01	Cc1ccc(OCC(O)CNCc2ccccc2)cc1C (stereo not drawn)
i	0.18	CCC(COC(=O)Nc1cccc(C)c1)NC(=O)OCC(C)C (stereo not drawn)
i	1.64	CCOC(=O)COc1cc(-n2c(=S)[nH]c3cc(OC)c(OC)cc3c2=O)c(Cl)cc1Cl
i	-1.37	CC1(C(=O)N2CC3(CC(c4cccc(NC(=O)CC(c5ccccc5)c5ccccc5)c4)=NO3)C[C@@H]2C(N)=O)CC1 (stereo partly drawn)
i	0.06	CC1(OC(=O)c2ccco2)C(=O)C=C2C=C(c3ccsc3)OC=C2C1=O (stereo not drawn)
i	1.45	COc1cc2c(cc1OC)CN(CC(=O)Nc1ccccc1SC)CC2
i	0.61	CCOC(=O)CSc1cc(CSc2ccccc2)nc(-c2ccccc2)n1
i	1.7	CCS(=O)(=O)c1ncc(CO)n1CCc1ccccc1
i	-0.38	O=S(=O)(Nc1nc2ccccc2nc1NCC1CCCO1)c1cc(Cl)ccc1Cl (stereo not drawn)
i	0.36	O=C(Nc1ccc(Cl)cn1)C1CCCN1S(=O)(=O)c1ccccc1 (stereo not drawn)
i	-0.2	O=C(CSc1ccc2c(c1)OCCO2)Nc1ccc(Br)cc1
i	0.08	CC(=O)c1ccc(NC(=S)NC(C)CCc2ccccc2)cc1 (stereo not drawn)
i	-0.01	CCSc1nc(-c2ccc(OC)cc2)cc(-c2ccccc2)c1C#N
i	-0.51	O=C(COc1ccc(S(=O)(=O)N2CCOCC2)cc1Cl)NC1CCCCC1
i	-0.36	CCN(CC)S(=O)(=O)c1cc(NC(=O)COc2ccc(C#N)cc2OC)ccc1C
i	0.13	O=C(c1cccc(S(=O)(=O)N2CCCC2)c1)N(Cc1ccco1)C1CCS(=O)(=O)C1 (stereo not drawn)
i	-0.38	CC1C/C(=N\Nc2ccc(S(N)(=O)=O)cc2[N+](=O)[O-])CC(C)(C)C1 (stereo not drawn)
i	1.11	CC(C)Nc1ccc(C(CC(N)=O)NC(=O)Cc2ccc(Br)cc2)cc1[N+](=O)[O-] (stereo not drawn)
i	-0.01	CCOC(=O)N/N=C\c1ccc(OC/C=C/c2ccccc2)cc1
i	1.13	COc1ccc(CCN2C(=O)NC(NS(=O)(=O)c3ccccc3)(C(F)(F)F)C2=O)cc1OC (stereo not drawn)
i	0.63	COc1cccc(/C=C/C(=O)NCC2CCCCC2)c1
i	-0.14	Cc1ccc(S(=O)(=O)c2nc(NCc3ccc4c(c3)OCO4)sc2Cl)cc1
i	-1.19	CC(CCc1ccccc1)NC(=O)COC(=O)C12CC3CC(CC(Br)(C3)C1)C2 (stereo not drawn)
i	1.94	O=S1(=O)CCOC[C@H](Cc2ccccc2)N1Cc1ccc(F)cc1
i	-2.28	CCN(CC)S(=O)(=O)c1ccc(C(=O)NCC(=O)NCCCc2ccccc2)cc1
i	-1.11	COc1ccccc1N1CCN(C(=O)Cn2c(=O)oc3cc(S(=O)(=O)N4CCCC4)ccc32)CC1
i	-2.48	Cc1nn(Cc2ccccc2)c(C)c1NC(=O)CCCn1nc([N+](=O)[O-])cc1C
i	1.43	CC1(C)CCCC2=C1CC1C(=O)N(O)C(=O)C1C2 (stereo not drawn)
i	0.28	CCOC(=O)N1CCN(S(=O)(=O)c2ccc3c(c2)oc(=O)n3C)CC1
i	0.28	CCc1ccccc1NC(=O)C(C#N)Cc1cccnc1 (stereo not drawn)
i	0.27	COc1c(O)cccc1-c1nnn(CCC(=O)OCC(=O)c2ccccc2)n1
i	-0.47	O=C(COC(=O)/C=C/c1ccccc1F)Nc1nnc(-c2ccccc2)o1
i	-2.56	Cc1cc(C(=O)N/N=C/C=C/c2ccc3c(c2)OCO3)n[nH]1
i	0.08	CC(C)(C)C1CCC(=O)N(CCOc2ccccc2)CC1 (stereo not drawn)

Source: PubChem
